# Screening results: PubChem BioAssay, National Center for Advancing Translational Sciences (NCATS)
# Menin-MLL FL inh = menin-MLL binding inhibition, fluorescein peptide; Fluorescence polarization, fluorescein-MLL peptide displacement from menin; AID 1766; 290,000 tested, under 10 active; FP activity change, % at 61.4 µM; inconclusive = falling polarisation curve, or a change in total fluorescence; inactive = total fluorescence flat and polarisation flat or rising; no compound was filed as active; the % refers to the polarisation; negative = inhibition;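 note: % of control where 0% means no effect; inhibitors lower the polarisation; unlabelled MLL peptide was the positive control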
# TRPV1 PAM = human TRPV1 potentiation; Q8NER1; TRPV1-expressing cells, Fluo-8 calcium influx, capsaicin EC20 potentiation; host cell line not named in the record; control for the full effect not named in the record; potentiation, % at 8.33 µM; 320,000 tested, 0.02% active; AID 540277; active means potentiation above 80%; inconclusive means 30% to 80%; inactive means below 30%; note: 0% is about no effect
#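 Fluo-8 calcium influx in TRPV1-expressing cells, kinetic read (ex 480/em 520 nm). Compound added and read 3 min for agonist activity, followed by capsaicin at EC20 final and 2 min further read for enhancement.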
# TRPML1 blocker = human mucolipin-1 channel inhibition; activity change, negative = inhibition, % (no concentration beside the values); 390,000 tested, 0.02% active; Q9GZU1; TRPML1-inducible cells, Ca2+ dye fluorescence, FDSS; stronger effect = lower value; inhibition of EC80 agonist-evoked calcium signal; in the data active means activity change below about -50%; inconclusive means about -30% to -50%; inactive means above about -30%;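 note: stimulus is agonist 54-4 at its EC80 concentration; % is set by controls: 0 for no effect and ±100 for the full control effect; compound concentration not given in the record; the text of the record puts the active cut at -80%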
# Target sequence (Q9GZU1 whole entry, looked up): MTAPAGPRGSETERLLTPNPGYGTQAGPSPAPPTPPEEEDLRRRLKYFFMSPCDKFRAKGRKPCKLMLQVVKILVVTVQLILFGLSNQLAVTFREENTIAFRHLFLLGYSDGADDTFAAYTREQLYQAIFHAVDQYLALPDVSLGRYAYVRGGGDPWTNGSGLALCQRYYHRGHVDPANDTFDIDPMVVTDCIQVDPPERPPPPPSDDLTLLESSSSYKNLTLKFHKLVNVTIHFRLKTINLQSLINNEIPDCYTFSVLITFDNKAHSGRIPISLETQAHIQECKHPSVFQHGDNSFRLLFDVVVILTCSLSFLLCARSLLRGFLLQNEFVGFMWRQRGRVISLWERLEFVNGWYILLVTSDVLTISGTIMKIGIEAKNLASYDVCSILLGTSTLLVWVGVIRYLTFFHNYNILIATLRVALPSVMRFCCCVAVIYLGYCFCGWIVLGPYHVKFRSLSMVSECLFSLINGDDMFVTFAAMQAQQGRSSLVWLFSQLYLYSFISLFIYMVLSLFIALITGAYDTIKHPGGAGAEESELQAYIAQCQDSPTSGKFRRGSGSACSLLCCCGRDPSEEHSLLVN
#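 Calcium fluorescence in TRPML1-DL cells induced overnight with Tet: a 110 s read after compound pin addition, then a 110 s antagonist read after challenge with 54-4 at 4 uM final (EC80).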
# PINK1 expr mod = PINK1 expression modulation. PINK1 immunofluorescence, high-content cytometry, 24 h. Potency, µM (top dose mostly 76.6 µM), for the others: at the top dose activation (PINK1 increase), usual class: activators. 410,000 tested, 0.2% active. AID 624263; active = well fitted activation curve with a large enough effect; inconclusive = small, poorly fitted or top-dose-only effect; inactive = flat fitted curve, though single readings scatter; cell line not stated here;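 note: potency is the fitted concentration of half-maximal effect; % of control where 0% means no effect; nearly all actives have a fitted effect of over 65% in size; a mitochondrial uncoupler was the plate control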
#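 Readout is PINK1 immunofluorescence, quantified alongside mitochondrial, cell and nuclear markers by laser-scanning microplate cytometry. Cells from a stable line were exposed to compound titrations (5 concentrations) for 24 hours, with CCCP controls.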
# Sfp PPTase inh = inhibitors of Bacillus subtilis Sfp phosphopantetheinyl transferase; Q9F4F7; Potency, µM, for inactives: max response, negative = inhibition, hits mostly inhibitors; AID 1490; 310,000 tested, 3.5% active; Biochemical Sfp PPTase activity, qHTS; active = well fitted inhibition curve with a large enough effect; inconclusive = small, poorly fitted or top-dose-only effect, or another doubt; inactive = no such curve, though single readings can be large or run the other way;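 note: the enzyme is Sfp with the accession as filed and its product quenches rhodamine fluorescence; potency is the fitted concentration of half-maximal effect; 0% = enzyme reaction without inhibitor and -100% = no enzyme wells; top concentration of the series not given in the record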
#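 Step 1, compound plus 15 nM Sfp-PPTase, 15 min, room temperature. Step 2, add rhodamine-CoA (5 uM) and BHQ-2-YbbR (12.5 uM). Step 3, read 525/598 nm fluorescence at 0 and 30 min.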
# ClpP mod = qHTS Assay for Activators of ClpP; Potency, µM (top dose mostly 57.5 µM), without a hit: at the top dose activity change, negative = active; purified B. subtilis ClpP, FRET peptide cleavage, 20 min; AID 651965, 2013; 340,000 tested, 1.9% active; ATP-dependent Clp protease proteolytic subunit (Bacillus subtilis (strain 168)), P80244; active = well fitted falling curve with a large enough effect; inconclusive = small, poorly fitted or top-dose-only effect; inactive = no such curve, though single readings can be large or run the other way; note: potency is the fitted concentration of half-maximal effect; the source files actives as falling curves though it sought activators and does not explain the sign; nearly all actives have a fitted effect of over 65% in size; many hits overshoot -100%
# Target sequence (P80244 whole entry, looked up): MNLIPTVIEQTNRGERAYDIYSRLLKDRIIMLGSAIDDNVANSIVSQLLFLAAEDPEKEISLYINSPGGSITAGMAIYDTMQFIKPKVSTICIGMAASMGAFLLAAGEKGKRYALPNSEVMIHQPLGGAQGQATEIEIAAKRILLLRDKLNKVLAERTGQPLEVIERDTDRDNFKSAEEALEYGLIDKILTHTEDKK
#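 Buffer: 100 mM Tris/HCl pH8, 100 mM KCl, 0.05% low protease BSA, 2.5% glycerol, 0.01% Tween-20. ClpP 10 microg/mL final; 20 min RT; delta FRET normalized to ADEP and DMSO controls.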
# TRPML1 agonist = agonists of human TRPML1 channel; 410,000 tested, 0.12% active; activation, % (test concentration not listed); Q9GZU1; TRPML1-expressing cells, Ca2+ dye fluorescence, FDSS; host cell line not named in the record; reference of the full effect not given here; AID 624414; in the data active = activation above about 50%; inconclusive = about 30% to 50%; inactive = below about 30%; note: 0% is about no effect; the text of the record puts the active cut at 80%
#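 Agonist activity was taken from a 110 s kinetic Ca2+ dye read on the FDSS after pinning compounds onto TRPML1-DL cells. The cells were seeded at 1,500/well with Tet inducer, incubated about 16 h, then dye-loaded at room temperature.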
# Active calls of the source: *; ? = inconclusive; / = not tested or not shown; & = joins results of further samples; [ ] = remark or other dose.
# Every second line gives: Menin-MLL FL inh	TRPV1 PAM	TRPML1 blocker	PINK1 expr mod	Sfp PPTase inh	ClpP mod	TRPML1 agonist
> COc1ccc(CNC(=O)C2CCC(=O)N(C3CCCCCC3)C2)c(OC)c1 (centres undefined)
→ /	/	5.7	-0.3%	/	-0.1%	-0.3
> C=CCOC(=O)c1[nH]c2c(c1C)C(=O)CC(c1cc(OC)c(OC)c(OC)c1)C2 (centres undefined)
→ 3.5	-4.5	14.0	2.2%	17.2%	5.1%	0.3
> O=C(COC(=O)c1ccccc1Br)NCC1CCCCC1
→ /	/	12.5	-0.8%	/	-2.2%	-0.1
> COc1cc2c(NC3CCN(C)CC3)nc(N3CCCN(C)CC3)nc2cc1OCC1CCCCN1 (centres undefined)
→ /	/	/	-0.3%	/	4.1%	-0.3
> COc1ccc(C(=O)N/N=C(\C)Cn2nc([N+](=O)[O-])cc2C)cc1
→ 3.9	?	16.8	-2.1%	-7.9%	11.2µM*	-0.4
> CCOc1ccc(-n2c(SCC(=O)NCC3CCCO3)nc3c([nH]c4ccccc43)c2=O)cc1 (centres undefined)
→ /	/	5.6	-4.1%	/	-20.0%	0.3
> O=C(NCCc1ccccc1)c1ccc2c(c1)CCN2S(=O)(=O)c1ccc(Cl)cc1
→ /	/	7.6	0.7%	/	0.4%	0.4
> CCOC(=O)N1CCN(c2c(NCC3CCCO3)c(=O)c2=O)CC1 (centres undefined)
→ 1.3	-3.5	6.4	1.9%	16.7%	0.2%	-0.2
> COc1ccc(-c2nnc(N(C)C(=O)c3ccno3)s2)cc1
→ 0.2	2.1	10.6	-1.1%	-3.3%	22.4µM*	-0.7
> Cc1ccc(-c2noc(-c3cc4ccccc4oc3=O)n2)cc1
→ 7.8	-2.8	-0.3	2.5%	6.9%	-7.2%	-0.5
> Cn1c(=O)n(CC(=O)NCC2CCCO2)c(=O)c2c3c(sc21)COC(C)(C)C3 (centres undefined)
→ -3.5	-19.3	1.6	0.1%	12.1%	0.4%	-0.9
> C[C@@H]1COC(=O)[C@H](NC(=O)OCC2c3ccccc3-c3ccccc32)C/C=C\C[C@@H](CC(=O)N(CCO)Cc2ccccc2)C(=O)N1
→ /	/	7.1	2.4%	/	-1.0%	-0.5
> O=C(N/N=C\C=C\c1ccc2c(c1)OCO2)C1COc2cc3ccccc3cc2O1 (centres undefined)
→ 5.0	?	46.6	-2.6%	3.3%	?	0.4
> COc1ccc(NC(=O)CN(c2ccc(OC)cc2)S(=O)(=O)c2ccc(OC)c(OC)c2)cc1
→ -6.3	1.8	11.6	4.0%	13.6%	-1.9%	1.1
> CC(OC(=O)CCCN=C1NS(=O)(=O)c2ccccc21)C(=O)Nc1ccc(F)cc1Cl (centres undefined)
→ /	13.7	13.2	0.4%	/	-0.3%	-0.7
> O=C(NCCN1CCCCC1)c1ccc(F)cc1Cl
→ -2.9	15.1	-5.8	2.1%	9.8%	-0.9%	0.2
> COc1ccc(CNC(=O)CCn2cccn2)cc1
→ /	/	-9.6	0.0%	/	-1.6%	-0.5
> COc1ccccc1S(=O)(=O)Cc1ccc(C(=O)NCc2ccco2)o1
→ -0.3	-18.9	2.7	0.1%	8.5%	-1.5%	-0.2
> COc1ccc(S(=O)(=O)Nc2cc(C(=O)NC(C)C)ccc2N2CCOCC2)cc1
→ 3.2	10.1	10.8	7.0%[38.3 µM]	12.5%	-1.3%	0.2
> Cc1ccc(S(=O)(=O)c2cc3c(=O)n4cccc(C)c4nc3n(CC3CCCO3)c2=N)cc1C (centres undefined)
→ 0.4	-5.1	2.5	0.4%	5.7%	/	2.1
> CCc1nn(CC(=O)NCCCN(CC)c2cccc(C)c2)c(=O)c2cc3occc3n12
→ -2.7	-7.7	/	/	2.1%	/	/
> C/C(=N\Nc1cc(C(F)(F)F)ccc1Cl)c1ccncc1
→ -0.2	-6.6	46.4	-0.4%	-1.3%	/	1.2
> CCCNC(=O)c1cnn(-c2ccc(C)c(C)c2)c1C1CCN(C(=O)OC(C)(C)C)CC1
→ /	/	10.9	-0.1%	/	-0.2%	0.5
> Cn1cc(C(=O)N2CCCC(Nc3ccc(F)cc3)C2)c2ccccc21 (centres undefined)
→ /	-13.6	4.9	2.1%	1.0%	-1.7%	1.4
> Cc1nc(CNS(=O)(=O)c2cc(C)c(C)cc2C)cs1
→ 4.3	23.5	-8.1	1.5%	-6.7%	-2.3%	-0.7
> COc1ccc(/C=N/n2cnc3c([nH]c4ccc(F)cc43)c2=O)cc1CSc1ccccn1
→ 1.5	-1.9	-11.2	16.5%	0.6%	/	0.3
> Cc1cccc(C)c1-n1c(C)cc(/C=N/NC(N)=S)c1C
→ 0.2	-2.1	-5.6	3.0%	?	-3.9%	-0.9
> Cc1nnc(SCc2nc3scc(-c4ccccc4)c3c(=O)[nH]2)s1
→ 12.1	17.7	-20.8	5.3%	10.8%	-4.8%	0.8
> COc1cc(OC)cc(C(=O)N2CCN(C(=O)COc3ccc(C)cc3)CC2)c1
→ /	/	-2.6	-0.5%	/	0.6%	4.0
> N#Cc1ccccc1NC(=O)C1CCCO1 (centres undefined)
→ /	/	-10.9	0.1%	/	-1.7%	0.2
> Cc1ccccc1-n1nc(C)c2c1N=C1C(Cl)=CC(Cl)=CN1C2c1ccc(C(=O)O)cc1 (centres undefined)
→ ?	?	8.9	0.8%	?	0.9%	-0.2
> O=C(Nc1nnc([C@H]2C[C@H](O)[C@@H](CO)O2)s1)c1cccc(C(F)(F)F)c1
→ /	/	/	0.4%	/	-3.7%	-0.6
> O=C(COc1ccccc1)Nc1ccc2[nH]c(=O)[nH]c2c1
→ 3.2	3.5	-11.7	-0.9%	1.4%	-3.0%	-0.1
> O=c1c2ccccc2ncn1-c1cccc(Cl)c1
→ 2.2	-10.6	-17.4	0.7%	18.6%	-0.4%	-0.2
> Cc1cccc(C)c1OCC(=O)N[C@@H](Cc1ccccc1)[C@@H](O)C[C@H](Cc1ccccc1)NC(=O)[C@H](C(C)C)N1CCCNC1=O
→ -2.0	/	/	4.1%	-4.8%	1.1%	-1.1
> O=C(Cc1ccc([N+](=O)[O-])cc1)c1ccc(O)cc1O
→ 0.7	-13.8	-11.1	0.9%	4.6%	-0.9%	-0.2
> c1csc(CCCN2CCCCC2)c1
→ /	/	-5.9	-2.9%	/	2.7%	-0.5
> Cc1ccn2cc(C(=O)Nc3nnc(C)s3)nc2c1
→ 2.3	23.3	-10.8	/	?	-17.1%	0.6
> COc1ccc(COC(=O)C2=C(C)NC(=O)NC2c2cc(OC)ccc2OC)cc1 (centres undefined)
→ 1.1	-4.5	29.6	4.0%	19.3%	-1.1%	0.7
> Cc1cc2ccccn2c1C(=O)c1ccc(C#N)cc1
→ -16.9	0.6	9.4	-2.5%	9.1%	/	-0.7
> Cc1ccc(C2CC(C(F)(F)F)n3ncc(C(N)=O)c3N2)cc1 (centres undefined)
→ 3.2	-2.1	12.0	-0.9%	0.2%	-1.2%	-0.8
> COc1cc2cnc(-c3cccnc3)cc2cc1OC
→ /	/	6.0	-0.1%	/	-27.7%	-0.5
> COc1ccccc1-c1nnc2n1N=C(c1ccc(O)c(O)c1)CS2
→ -0.6	5.9	-8.8	3.6%	-19.8%	0.8%	0.7
> CCCCCc1nnc(NC(=O)c2ccc(=O)n(C)n2)s1
→ 0.8	3.3	6.7	2.4%	18.5%	/	-0.4
> O=C(C[n+]1ccccc1)N/N=C/c1ccc(F)cc1
→ 4.7	6.9	8.2	-0.2%	4.2%	/	-0.4
> N#Cc1ccc(C(=O)N2CCCCC2c2cc(C(=O)NCc3ccccc3)no2)cc1 (centres undefined)
→ /	/	-6.5	-0.3%	/	-2.4%	0.6
> C=CCONC(=O)c1cc(OCC(F)(F)F)ccc1OCC(F)(F)F
→ 4.3	-1.5	20.9	-2.9%	9.5%	-1.3%	-1.2
> CC(=O)N1c2ccc(S(=O)(=O)N3CCC(C(=O)Nc4cccc(C)c4)CC3)cc2CC1C (centres undefined)
→ -3.6	11.9	-5.4	0.4%	7.8%	-2.0%	-1.1
> Cc1ccc(C(=O)Oc2ccc(-c3nnco3)cc2)o1
→ /	-8.7	15.5	2.6%	/	/	-0.3
> Cc1ccc(Cl)cc1N1CCN(C(=O)C2CCN(Cc3nc(-c4ccc(Cl)cc4)oc3C)CC2)CC1
→ /	/	-22.5	-0.2%	/	-3.5%	0.1
> Cc1c(C(=O)NCc2ccc3c(c2)OCCO3)sc(=O)n1Cc1cccc(C(F)(F)F)c1
→ /	/	/	-1.2%	/	-3.1%	1.4
> CCc1nnc(NS(=O)(=O)c2ccc(NC(=S)NC(=O)c3ccncc3)cc2)s1
→ -0.2	1.5	-5.7	-1.8%	-2.9%	-1.9%	2.7
> Cc1cccc(NC(=O)CN2C(=O)S/C(=C\c3ccccn3)C2=O)c1
→ -0.3	0.8	-7.5	?	6.5%	1.2%	0.6
> CN(c1ccc(C(=O)Nc2ccc(F)cc2F)cc1)S(=O)(=O)c1ccccc1
→ /	-12.2	30.4	9.6%	-2.7%	-1.2%	0.5
> NC1=NC(=O)/C(=C\c2cc([N+](=O)[O-])ccc2Cl)S1
→ 0.9	4.8	17.1	2.0%	-9.9%	-0.8%	0.5
> Cc1ccccc1CNC(=O)Cn1cc2c(n1)-c1c(oc(C(=O)N3CCCC3)c1C)CC2
→ /	/	18.3	1.7%	/	?	4.1
> Cc1c(NC(=O)CN2C(=O)NC3(CCCCC3C)C2=O)cccc1[N+](=O)[O-] (centres undefined)
→ /	-3.4	7.7	1.3%	/	2.3%	0.2
> COC(=O)c1cccc(COC(=O)c2ccc(N(C)C)cc2)c1
→ -0.4	-3.5	2.7	4.0%	-9.8%	-7.2%	0.0
> CCSc1nc(=S)n(-c2ccccc2)c(C)c1C(C)=O
→ 6.2	10.6	13.7	2.8%	8.5%	-3.2%	0.6
> O=C(COC(=O)CNC(=O)c1ccc(Cl)c([N+](=O)[O-])c1)NC(=O)CN1CCCC1=O
→ /	4.5	-1.6	5.2%	/	-0.5%	-0.2
> CCC/C(=N\NC(=O)C1CC1)c1ccccc1
→ /	/	21.4	0.4%	/	/	-0.7
> CCCN1CCC(=O)N([C@H](CSc2ccccc2)Cc2ccccc2)CC1
→ -0.2	-13.5	2.3	-0.2%	-0.5%	-0.4%&-1.3%	-0.5&-0.1
